RVFV N-RNA inh – inhibitors of RVFV nucleoprotein–RNA binding, primary screen, biochemical, fluorescence polarization. % bound, % (concentration not given with the values). P21700. actives 0.1% (n = 20,000). RVFV N-RNA binding; hits give low values. AID 651828, 2012;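 active = between 0 and 58% in either replicate with normal brightness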;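 also: 100 nL library stock added to about 12 µL; 100% = protein and probe without compound and 0% = probe alone; numbers are from one replicate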
Target sequence (P21700 whole entry, looked up): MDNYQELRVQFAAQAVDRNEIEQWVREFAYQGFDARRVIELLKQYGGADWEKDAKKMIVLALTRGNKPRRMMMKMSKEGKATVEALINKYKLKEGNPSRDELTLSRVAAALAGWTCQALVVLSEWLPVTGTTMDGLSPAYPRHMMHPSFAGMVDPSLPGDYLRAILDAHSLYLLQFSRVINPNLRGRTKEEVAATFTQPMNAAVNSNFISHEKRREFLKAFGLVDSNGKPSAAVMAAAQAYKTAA
* marks the source's active call; other numbers are inactive results; & = joins results of further samples.

SMILES	RVFV N-RNA inh
N#Cc1c(N)nc(Sc2ccc(Cl)cc2)c(C#N)c1-c1cccs1	97
O=c1c2ccccc2[se]n1-c1ccccc1	78
Cc1ccc(-c2cc(C(F)(F)F)nn2-c2ccc(S(N)(=O)=O)cc2)cc1	98&96&107
COc1cccc(NC(=S)N2CCCCC2)c1	109
CCN(CC)C(=O)c1sc(NC(=S)N2CCN(C(=O)c3ccco3)CC2)c(C(=O)OC)c1C	90
C=CCc1ccccc1OCC(N)=O	86
COc1ccc(/C=C2/SC(=O)N(CCCC(=O)Nc3ccccc3O)C2=O)cc1	100
CCOC(=O)N1CCC(NC(=O)Nc2ccc(C)c(Cl)c2)CC1	107
COc1cc(C2Nc3cc(Cl)ccc3O2)cc(OC)c1OC (stereo not drawn)	101
COc1ccc(C(=O)NC(CC(=O)O)c2ccc(OC)cc2)cc1 (stereo not drawn)	85
O=C(O)/C=C/C=C/c1ccc(Cl)cc1	116
O=C(c1ccc(C(F)(F)F)cc1)n1nccc1-c1cc(-c2ccccc2)no1	86
Cc1cn2c(nc1=O)O[C@@H]1C[C@H]2O[C@@H]1CO	86
O=C(Nn1c(=O)[nH]c2ccccc2c1=O)c1ccco1	89
COc1cc(/C=C/C(=O)Nc2c3c(nn2C(C)(C)C)CSC3)cc(OC)c1OC	98
CCCCNC(=O)C1Cc2ccccc2CN1S(=O)(=O)c1cccs1 (stereo not drawn)	96
O=C(c1ccccc1F)N1CCN=C1c1ccccc1	102
C[N+]1(CCC(C(N)=O)(c2ccccc2)c2ccccc2)CCCCC1	91
Cc1nc(SCc2ccccc2)n[nH]1	101
CCOC(=O)c1sc(NC(=S)NCc2cc(C)n(C)n2)c(C(=O)OCC)c1C	103
O=C(O/N=C1/CCCc2nonc21)C(F)(F)F	113
Cc1noc(C)c1C(=O)O/N=C(\N)Cc1ccc(-c2csnn2)cc1	103
O=c1cccc2n1CC1CC2CN(C(=S)NC2Cc3ccccc3C2)C1 (stereo not drawn)	95
Cc1ccccc1OCC(=O)N1CCc2ccccc2C1	96
COc1cc(OC)cc(-c2nnc(NC(=O)c3ccc(S(=O)(=O)N(C)c4ccccc4)cc3)o2)c1	88
Cc1nn(-c2ccccc2)c2nc3oc(C(=O)c4ccc(Br)cc4)c(N)c3c(-c3cccnc3)c12	92
COc1cc(NC(=S)N2CCCCC2CO)cc(OC)c1 (stereo not drawn)	91
C#CCn1c(=NC(=O)C2CC2)sc2ccccc21	103
CCC1CCCCN1S(=O)(=O)Cc1ccccc1Cl (stereo not drawn)	91
Clc1cccc(C2C=C(c3ccccc3Cl)Nc3ncnn32)c1 (stereo not drawn)	93
Cc1nc(CSc2nc3scc(-c4ccco4)c3c(=O)n2-c2ccccc2)cs1	82
OCC1O[C@H](O)C(Cl)C(O)C1O (stereo partly drawn)	103
Cn1c(SCc2ccccc2)nc(N)cc1=O	103
Nc1[nH]c(=O)[nH]c(=O)c1N=Nc1ccc(SC(F)F)cc1	95
Cc1ccc(NC(=O)N2CCC(n3nnc(-c4cccs4)n3)CC2)cc1	93
Cc1cc(O)c(Cc2c(O)cc(C)n(C)c2=O)c(=O)n1C	94
CN(C)C(N)=NCCC[C@H](N)C(=O)O	100
O=C(Nc1nnc(-c2ccccc2Cl)o1)c1ccc(S(=O)(=O)N2CCCC2)cc1	102
O=C(CNS(=O)(=O)c1ccccc1)N1CCN(c2ccccc2)CC1	96
COC(=O)c1ccc(/C=[N+](/[O-])C2(C)CCCCC2=O)cc1 (stereo not drawn)	101
CCN(CC)C(=O)Cn1c(=O)n(-c2ccc(F)cc2)c(=O)c2oc3ccccc3c21	99
C1=Cc2ccccc2Nc2ccccc21	97
O=C(Nc1ccccc1N1CCOCC1)C1CCN(c2nccc(C(F)(F)F)n2)CC1	97
CCC(=O)N=c1sc2cc(Br)ccc2n1CCOC	101
COc1cnn(-c2ccccc2)c(=O)c1OC	104
O=C1CSC(=Nc2cccc(C(F)(F)F)c2)N1	95
CN1CCN(/N=C/c2ccc(Cl)cc2)CC1	102
O=C(NCC1COc2ccccc2O1)C1COc2ccccc2O1 (stereo not drawn)	102
NNc1nncc2ccccc12	90
Cc1ccc(N(C)NC=C(C#N)C#N)nn1	94
CCOC(=O)COc1ccccc1C(=O)O	98
CCOC(=O)COc1cccc(Cl)c1	89
Cn1c(/C(C#N)=C(\O)CN2C(=O)CCC2=O)nc2ccccc21	93
COc1ccc(-c2oc(NC(=O)Cc3ccc(OC)c(OC)c3)c(C#N)c2-c2ccc(OC)cc2)cc1	109
Cc1nnc(Nc2ccc(S(N)(=O)=O)cc2)c2ccccc12	99
Cc1ccc2cc(CCNC(=O)C3CCCCC3)c(=O)[nH]c2c1	93
c1ccc(CN2CCN(c3ccccc3)CC2)cc1	92
COc1cc2ncc(-c3ccccc3)nc2cc1OC	104
Cc1ccc(N2CCC(=O)N2)cc1	86
CCN1CCc2c(sc(NC(=O)c3ccc(S(=O)(=O)N4CCCC4)cc3)c2C(N)=O)C1	100
The results go on.
SMILES	RVFV N-RNA inh
COC(=O)C1CSCC/C1=N\Nc1ccc(Cl)cc1Cl (stereo not drawn)	93
CN(C)c1ccnc(NCc2ccccc2)c1C#N	86
CCC(=O)n1nc(-c2ccco2)nc1SCc1ccccc1	98
CSc1ncc(/C=C2/C(=O)NC(=O)N(C3CCCCC3)C2=O)cn1	91
O=C(NC1CCCC1)c1ccc2c(c1)C(=O)N(CC1CCCO1)C2=O (stereo not drawn)	99
COc1nc(OC)nc(N2CCCc3cccc(C)c32)n1	98
CCC(=O)N1N=C(c2ccc(F)cc2)CC1c1ccc(OC)cc1 (stereo not drawn)	92
CCC(=O)Nc1sccc1C(=O)OC	101
Cc1cccc(-c2noc(NC(=O)O/N=C/c3c(Cl)cccc3Cl)n2)c1	99
CN1CCC2(CCN3CCc4c(oc5ccccc45)C3C2)N(C)C1=O (stereo not drawn)	98
Cc1nc(-c2ccc(S(=O)(=O)N3CCCN(C(=O)OC(C)(C)C)CC3)s2)cs1	99
CCOC(=O)c1c(/C=C2\C(=O)Nc3ccccc32)c(C)n(Cc2cccs2)c1C	99

14 compounds out of the list, sorted by heavy-atom count, lowest first.
SMILES	RVFV N-RNA inh
Cc1ccc(N2CCC(=O)N2)cc1	86
CCC(=O)Nc1sccc1C(=O)OC	101
CN(C)c1ccnc(NCc2ccccc2)c1C#N	86
COc1cc2ncc(-c3ccccc3)nc2cc1OC	104
COc1nc(OC)nc(N2CCCc3cccc(C)c32)n1	98
Cc1nnc(Nc2ccc(S(N)(=O)=O)cc2)c2ccccc12	99
Cn1c(/C(C#N)=C(\O)CN2C(=O)CCC2=O)nc2ccccc21	93
CSc1ncc(/C=C2/C(=O)NC(=O)N(C3CCCCC3)C2=O)cn1	91
CN1CCC2(CCN3CCc4c(oc5ccccc45)C3C2)N(C)C1=O (stereo not drawn)	98
Cc1cccc(-c2noc(NC(=O)O/N=C/c3c(Cl)cccc3Cl)n2)c1	99
Cc1nc(-c2ccc(S(=O)(=O)N3CCCN(C(=O)OC(C)(C)C)CC3)s2)cs1	99
CCOC(=O)c1c(/C=C2\C(=O)Nc3ccccc32)c(C)n(Cc2cccs2)c1C	99
CCN1CCc2c(sc(NC(=O)c3ccc(S(=O)(=O)N4CCCC4)cc3)c2C(N)=O)C1	100
COc1ccc(-c2oc(NC(=O)Cc3ccc(OC)c(OC)c3)c(C#N)c2-c2ccc(OC)cc2)cc1	109

More entries:
SMILES	RVFV N-RNA inh
Cc1[nH]n(-c2nc3ccccc3[nH]2)c(=O)c1C1OC(=O)c2ccccc21 (stereo not drawn)	86
COc1ccc(-c2c(C)oc3cc(OCCN4CCOCC4)ccc3c2=O)cc1	94
O=C(N1CCC2(CC1)OCCO2)C(F)(F)F	84
O=S(=O)(c1ccccc1)c1nc(-c2ccco2)oc1Nc1ccccc1	95
CCN(CC)CCOCCOC(=O)C(CC)(CC)c1ccccc1	101
C=CCN1C(=Nc2ccccc2)SC/C1=C\C(=O)OC	100
CCC(=O)Nc1nc2c(s1)CSc1ccccc1-2	101
O=c1[nH]c2cc(Cl)ccc2c(O)c1-c1ccc(Oc2ccccc2)cc1	97
CSc1nnc(-c2ccccc2NC(=O)/C=C/c2ccccc2)o1	89
COc1ccccc1C(=O)n1cc(C)cn1	97
NS(=O)(=O)c1ccc(NS(=O)(=O)/C=C/c2ccccc2)cc1	81
N#C/C(=C\N1CCN(c2ccccc2)CC1)S(=O)(=O)c1ccc(F)cc1	99
Nc1ccc(CCN2CCN(c3cccc(C(F)(F)F)c3)CC2)cc1	95
CCCCC(CC)COc1ccc(-c2nc(-c3ccc(OC)cc3)nc(-c3ccc(OCC(CC)CCCC)cc3O)n2)c(O)c1 (stereo not drawn)	101
Cc1ccc(-n2c(CNC(=O)c3cccs3)nnc2SCC(=O)NO)cc1	93
O=C(Nc1ccc(CN2CCS(=O)(=O)CC2)cc1)c1ccc(Cl)cc1	101
O=C1C=CC(=O)C(CCCCCCC2=CC(=O)C=CC2=O)=C1	107
CC(C)N1CC(COc2ccc(F)cc2)OC1=O (stereo not drawn)	101
COc1ccc(-n2cnc3sc4c(c3c2=O)CCCC4)cc1	92
CCC(C(=O)Nc1ccccn1)c1ccccc1 (stereo not drawn)	92
CCOC(=O)C(C#N)c1ccccn1 (stereo not drawn)	99
CC1CCc2cc(F)ccc2N1C(=O)C12CCC(C)(C(=O)C1)C2(C)C (stereo not drawn)	87
CCCCOC(=O)c1ccc(NC(=O)CSCc2n[nH]c(=O)[nH]2)cc1	92
CCOC(=O)CSc1nc2c(c(=O)n1-c1ccccc1)C(=O)C1COC(C)(C)CC1=N2 (stereo not drawn)	92

3 entries from above, ordered by SMILES length, lowest first.
SMILES	RVFV N-RNA inh
Cn1c(SCc2ccccc2)nc(N)cc1=O	103
COc1cc(C2Nc3cc(Cl)ccc3O2)cc(OC)c1OC (stereo not drawn)	101
Cc1ccc(-c2cc(C(F)(F)F)nn2-c2ccc(S(N)(=O)=O)cc2)cc1	98&96&107

Next compounds
SMILES	RVFV N-RNA inh
Cc1ccc(S(=O)(=O)Nc2cc(-c3ccccc3)nn2C)cc1Cl	100
CN(C)S(=O)(=O)N1CCn2cccc2C1c1ccccc1 (stereo not drawn)	101
CC1CN(CC(=O)C(C#N)c2ccccc2)CC(C)O1 (stereo not drawn)	95
CNC(=O)/C(=C\c1ccc(Cl)cc1)NC(=O)c1ccco1	101
Cc1cn2c(=O)c(C(=O)NCCCN3CCN(CCCNC(=O)c4cnc5sc(C)cn5c4=O)CC3)cnc2s1	90
CN[C@H]1CC2OC(C)([C@H]1OC)n1c3ccccc3c3c4c(c5c6ccccc6n2c5c31)C(=O)NC4 (stereo partly drawn)	105&99
COc1ccccc1OCCNC(=O)c1ccc(-n2cnnc2)cc1Cl	92
Cc1ccc(S(C)(=O)=O)s1	96
OCCCc1nc2ccccc2n1CC1CCCCC1	94
CC(C)CN1C(=O)c2ccc(C(=O)Nc3ccncc3)cc2C1=O	98
COc1ccc2ncc(S(=O)(=O)c3ccc(C)c(C)c3)c(N3CCN(C)CC3)c2c1	98
CCSC1=N/C(=C\c2ccc(-c3cccc(Cl)c3)o2)C(=O)S1	102
Cc1ccc2c(Cl)cc(Cl)c(O)c2n1	97
O=C(COc1ccc(F)cc1)Nc1ccc2c(c1)OCCO2	96
Cc1ccc(/C(O)=C(\C#N)c2nc3ccccc3s2)cc1C	95
Cc1ccc(C(=O)NC(C)C(c2cccs2)N2CCN(C)CC2)cc1 (stereo not drawn)	98
CC(C)(C)NC(=O)COc1cc(N2CCOCC2)c2ccccc2c1Cl	94
CCOc1ccc(I)cc1C#N	93
CC1CCCC(C)N1C(=O)C1c2ccccc2Oc2ccccc21 (stereo not drawn)	91
CCOC(=O)C1CCN(C(=O)c2cc3c(ccc4ccccc43)o2)CC1	97
CS(=O)(=O)c1ccccc1C(=O)Nc1ccc(-c2nc3ccccc3o2)cc1	100
COC(=O)c1ccc(S(=O)(=O)N(CCO)CCO)n1C	108
CNC(=O)c1c(NC(=O)c2nc3ccccc3s2)sc(C)c1C	111
CCCCn1nnc(NC(=O)CSc2ccc(Cl)cc2)n1	111
O=C(O)c1ccc(CN2C(=O)SC(Nc3ccccc3)C2=O)cc1 (stereo not drawn)	98
O=C(NN1C(=O)C2C3C=CC(C3)C2C1=O)C(O)c1ccccc1 (stereo not drawn)	98
Cn1cc2c(=O)[nH]nnc2n1	94
C=C1CSc2nc(=O)c3c4c(sc3n21)CCC4	92
CCN(CC)P(=S)(N(CC)CC)N(CC)CC	94
CCCOC(=O)c1c(NC(=O)OC)sc2c1CCCCC2	90
S=C(NC1=NCCS1)Nc1ccccc1	96
O=C1NC(=O)C2C3C=CC(O3)C12 (stereo not drawn)	94
c1ccc2c(c1)N=C(NNC1=Nc3ccccc3SC1)CS2	100
CN=C(NC#N)NCCSCc1csc(N=C(N)N)n1	94
N#CC(C#N)=C1NC2=C(Cc3ccccc32)C(c2cccs2)=C1C#N	91
C(=N\Nc1nc(-c2ccc3c(c2)OCCO3)cs1)/c1ccc2c(c1)OCO2	97
Cc1ccc(S(=O)(=O)NC(=O)NCC2CCN(S(=O)(=O)c3ccccc3)CC2)cc1	94
CSc1nc2ccc(S(=O)(=O)Nc3ccc4c(c3)COC4=O)cc2s1	94
O=C(CSc1nc(N2CCCCC2)nc(N2CCCCC2)n1)Nc1ccccc1	93
ONC(=Nc1ccccc1Cl)c1ccccc1Cl	108
CC12CCC3c4ccc(O)cc4CCC3C1C[C@H](O)[C@@H]2O (stereo partly drawn)	97
COc1ccc(S(=O)(=O)N(CC(=O)N2CCOCC2)Cc2ccccc2)cc1C	98
O=C1CC(Nc2ccc(F)cc2)C(=O)N1C1CCCC1 (stereo not drawn)	91
Cc1cccc(NC(=O)NCC2CC2)c1	95
O=C(NCc1ccco1)c1ccc(-c2cc3ccccc3oc2=O)cc1	92
Cc1ccc(-c2csc3nnc(SCc4ccc5c(c4)OCO5)n23)cc1	93
Cc1ccc(C2=NNC(=O)CC2)cc1C	85
CCCCc1cc2c(=O)c(-c3cc4ccccc4o3)coc2cc1O	93
COC(=O)Nc1scc(-c2ccccc2)c1C(=O)NCc1ccco1	91
COC(=O)C1CCN(c2ccc(Cl)nn2)CC1	94
Cn1c(=O)[nH]c(=O)c2c1nc(N1CCN(CC(N)=O)CC1)n2Cc1ccccc1F	93
COc1cc(C[C@@H](CO)[C@H](CO)Cc2ccc(O)c(OC)c2)ccc1O	95

High-throughput results as filed in PubChem BioAssay.

Only part of the results is shown. The share of hits here may be higher or lower than overall.
